# Bioassay records as filed in PubChem BioAssay.
# NS1 function inh – blocks influenza NS1 protein function; 270,000 compounds, 0.4% hits; Potency, µM (series often up to 46.1 µM), for inactives: at the highest dose activity, positive = more growth; S. cerevisiae slowed by influenza A NS1, growth recovery by OD600; note: actives are rising curves; nearly all actives have a fitted effect of over 50% in size
#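 In this qHTS, NS1 from influenza A is expressed in budding yeast, where it slows growth. Cells are switched from glucose to 2% galactose medium (pH 6.0, -URA), treated with compound, and growth recovery is read at OD600.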
# LASV entry inh – blocks Lassa virus binding to or entry into cells; Lassa virus pseudotype entry inhibition, cell reporter; control for the full effect not named in the record; Potency, µM (doses to about 37.9 µM), inactives show at the top dose activity change, negative = inhibition, hits mostly inhibitors; 300,000 compounds, 1.2% hits; active means well fitted inhibition curve with a large enough effect; inconclusive means small, poorly fitted or top-dose-only effect, or effect the other way; inactive means flat fitted curve, though single readings scatter; tested in HEK293 cells; note: % is set by controls: 0 for no effect and ±100 for the full control effect; nearly all actives have a fitted effect of over 50% in size; luciferase read-out
# Cruzain inh Det – blocks cruzain activity in presence of Triton detergent | 200,000 compounds, 0.43% hits | purified cruzain, Z-FR-AMC fluorescence, 0.01% Triton | Potency, µM, for the others: max response, negative = inhibition, usual class: inhibitors; active = well fitted curve in the direction sought with a large enough effect; inconclusive = small, poorly fitted or top-dose-only effect, or another doubt; inactive = no such curve, though single readings can be large; an effect the other way counts as inactive or inconclusive;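 note: plate controls were neutral wells for no effect and buffer without enzyme for full effect; nearly all actives have a fitted effect of over 40% in size; top concentration of the series not given in the record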
# Target sequence (P25779 123-467 limits assumed): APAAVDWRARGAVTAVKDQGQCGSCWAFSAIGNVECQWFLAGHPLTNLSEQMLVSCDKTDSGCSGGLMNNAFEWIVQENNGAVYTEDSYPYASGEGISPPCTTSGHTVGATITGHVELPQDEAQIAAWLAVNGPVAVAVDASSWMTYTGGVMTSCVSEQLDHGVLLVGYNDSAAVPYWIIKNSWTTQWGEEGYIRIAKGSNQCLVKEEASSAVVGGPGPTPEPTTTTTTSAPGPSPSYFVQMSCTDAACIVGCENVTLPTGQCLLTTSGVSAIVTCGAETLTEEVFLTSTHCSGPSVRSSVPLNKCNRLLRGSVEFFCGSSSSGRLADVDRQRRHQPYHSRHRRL
#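 Steps: dispense cruzain (1.5 nM final) in acetate buffer pH 5.5 with DTT and 0.01% Triton X-100; pin-transfer compounds; incubate 15 min RT; add Z-FR-AMC (2 uM final); read fluorescence every 30 s, using the 60 s intensity change.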
# 2A StopGo – FMDV 2A StopGo reporter, luciferase signal. human cells with a luciferase reporter of 2A StopGo recoding; control for the full effect not named in the record. Potency, µM (top dose mostly 57.9 µM), for inactives: at the top dose signal change, negative = less light. 410,000 compounds, 1.2% hits; active = well fitted falling curve with a large enough effect; inconclusive = small, poorly fitted or top-dose-only effect; inactive = no such curve, though single readings can be large or run the other way; tested in HEK293T cells; note: % is set by controls: 0 for no effect and ±100 for the full control effect; nearly all actives have a fitted effect of over 45% in size; luciferase light after 4 h
# MARV entry inh – inhibitors of Marburg virus binding or cell entry; 300,000 compounds, 1.8% hits; Potency, µM (highest dose often 37.8 µM), for the others: at the highest dose activity change, negative = inhibition, most hits filed as inhibitors; Marburg virus pseudotyped entry inhibition, cell reporter; control for the full effect not named in the record; about a third of the inactives were read at about 46 µM; active = well fitted inhibition curve with a large enough effect; inconclusive = small, poorly fitted or top-dose-only effect, or effect the other way; inactive = flat fitted curve, though single readings scatter; tested in HEK293 cells; about a fifth of its hits are not listed in these tables; note: % is set by controls: 0 for no effect and ±100 for the full control effect; luciferase read-out
# Cruzain inh noDet – blocks cruzain activity in detergent-free assay; P25779; purified cruzain, Z-FR-AMC fluorescence, no detergent; Potency, µM, for the others: max response, negative = inhibition, hits mostly inhibitors; 200,000 compounds, 2.3% hits; AID 1476; active = well fitted curve in the direction sought with a large enough effect; inconclusive = small, poorly fitted or top-dose-only effect, or another doubt; inactive = no such curve, though single readings can be large; an effect the other way counts as inactive or inconclusive;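 note: plate controls were enzyme without inhibitor for no effect and buffer without enzyme for full effect; nearly all actives have a fitted effect of over 40% in size; top concentration of the series not given in the record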
#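 Purified cruzain at 1.5 nM, pre-incubated 15 min with compound at room temperature in 100 mM sodium acetate pH 5.5, 5 mM DTT, 0.00005% Triton X-100. Reaction started with 2 uM Z-FR-AMC; AMC fluorescence increase over 60 s gives rate.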
# RE007 growth inh – less growth of the S. pombe RE007 Vpr strain. S. pombe RE007 Vpr strain, BacTiter-Glo ATP luminescence, 24 h; control for the full effect not named in the record. 360,000 compounds, 0.21% hits. Potency, µM (top dose mostly 92.2 µM), without a hit: at the top dose activity change, negative = less growth; active = well fitted falling curve with a large enough effect; inconclusive = small, poorly fitted or top-dose-only effect; inactive = no such curve, though single readings can be large or run the other way;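 note: % is set by controls: 0 for no effect and ±100 for the full control effect; nearly all actives have a fitted effect of over 50% in size; the assay follows cell death caused by Vpr and the record does not say whether a fall means rescue or toxicity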
#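 Fission yeast strain RE007, carrying one chromosomally integrated HIV-1 vpr copy, was seeded at OD 0.01 in PMG+AL medium with 23 nL pinned compound. After 24 h at 30 °C and 99% humidity, viability was read by BacTiter-Glo luminescence.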
# SARS PLpro yeast – inhibitors of SARS-CoV papain-like protease in yeast. Potency, µM (top dose mostly 32.9 µM), for the others: at the top dose activity, positive = growth rescue. 330,000 compounds, 0.19% hits. S. cerevisiae expressing SARS-CoV PLpro, growth rescue; control for the full effect not named in the record. AID 485353; note: 0% is about no effect; nearly all actives have a fitted effect of over 55% in size; growth read by luminescence after 48 h
# * marks the source's active call; other numbers are inactive results; u = inconclusive; x = not tested or not shown; & = joins results of further samples; [ ] = dose if it differs, or a comment. Unless noted, calls come from the whole dose curve; as a rule, active means well fitted rising curve with a large enough effect; inconclusive means small, poorly fitted or top-dose-only effect; inactive means no such curve, though single readings can be large or run the other way. Potency is the fitted concentration of half-maximal effect.
SMILES,NS1 function inh,LASV entry inh,Cruzain inh Det,2A StopGo,MARV entry inh,Cruzain inh noDet,RE007 growth inh,SARS PLpro yeast
O=C(OCCOc1cccc(Cl)c1)c1cc(S(=O)(=O)N2CCOCC2)ccc1F,x,20%,x,-21%,8%,x,-11%,-4%
COc1ccc([N+](=O)[O-])cc1-c1[nH]c(-c2ccc(C(=O)O)cc2)nc1-c1ccccc1,13%,x,x,-6%,x,x,7%,-9%
COc1ccc(CCNC(=O)Cn2cnc3c(cnn3-c3ccccc3Cl)c2=O)cc1OC,-6%,-2%,2.5%,u,-2%,0%,-6%,3%
Nn1cnc2scc(-c3cccs3)c2c1=O,x,-15%[46.1 µM],x,-8%,-17%[46.1 µM],x,1%,1%
Cc1ccc(NS(=O)(=O)c2ccc(NC(=O)c3cccc(NC(=O)C(C)C)c3)cc2)cc1,5%,u,-4.1%,u,13µM*,-11%,0%,6%
c1ccc(-c2cc3c(N4CCCC4)ncnc3s2)cc1,x,-6%,x,u,2%[46.1 µM],x,-7%,1%
CCN=C1SC(CC(=O)NCCc2ccc(OC)cc2)C(=O)N1CC (stereo not given),-14%,10%,3.1%,6%,7%,-3%,19%,-12%
COc1ccc(NS(=O)(=O)c2cccc(C(=O)N/N=C(/C)c3ccc(-n4ccnc4)cc3)c2)cc1,x,28%[46.1 µM],x,-14%,11%[46.1 µM],x,-14%,x
O=C(CNC(=O)c1ccccc1Br)NCC(c1ccco1)N1CCCCC1 (stereo not given),x,0%,x,-17%,-1%,x,-21%,x
Fc1ccccc1COc1ccc(C(=S)N2CCCC2)cc1,-9%,x,x,46%[activator],x,x,0%,-8%
CC(=O)NNC(=O)c1nc(-c2ccccc2)c(C)o1,4%,x,x,-2%,x,x,-10%,-1%
O=C(O)c1ccccc1C(=O)Nc1cc(C(F)(F)F)ccc1N1CCCC1,-4%,-14%[46.1 µM],x,-19%,u,x,-1%,-7%
COc1ccc(-c2nsc(NC(=O)C(C)Oc3ccc(Cl)c(C)c3)n2)cc1 (stereo not given),x,7%[46.1 µM],2.4%,u,1%[46.1 µM],20%,x,x
CCCNC(=O)Cn1nc([N+](=O)[O-])c([N+](=O)[O-])c1C,-8%,-1%,2.5%,-17%,-6%,-3%,6%,8%
COc1ccc(S(=O)(=O)N(C)c2ccc(C(=O)Nc3cccnc3)cc2)cc1,-13%,27%,x,-19%,19%,x,30%,8%
CC(C)(O)C(=O)NN(C(=O)c1ccccc1)c1ccc2ccccc2c1,u,3%,-2.7%,-4%,12%,1%,24%,11%
CCn1c(=O)c(C(=O)Nc2ncccc2C)c(O)c2ccccc21,-54%,-9%,x,-12%,u,x,u,8%
COCCN(C(=O)COC(=O)Cc1cccc(OC)c1)c1c(N)n(CC(C)C)c(=O)[nH]c1=O,x,18%,x,0%,13%,x,-14%,-4%
CCOC(=O)CSc1nc2c([nH]c3ccccc32)c(=O)n1-c1ccc(OC)cc1,x,4%[46.1 µM],0.7%,-5%,x,-1%,x,x
N/C(CSc1ccc(Cl)cc1)=N\NC(=O)c1ccncc1,-2%,u,x,-13%,-17%[46.1 µM],x,0%,0%
O=[N+]([O-])c1cccc(CSc2nnc(Cc3ccccc3)n2-c2ccc(F)cc2)c1,-1%,-14%,-7.3%,-10%,u,7%,-6%,0%
Nc1cc(=O)[nH]c(SCc2ccc(Cl)cc2)n1,1%,-11%,3.4%,-28%,-10%,1%,7%,9%
O=C(COc1ccc2c(c1)OCO2)NCc1cccs1,x,u,x,55%[activator],3%,x,2%,0%
COc1ccc(CNc2nc(SCc3cc(=O)n4cc(Cl)ccc4n3)nc3ccccc23)cc1,6%,14%,-21%,2%,5%,-12%,-13%,24%
CC1CC(C)CN(S(=O)(=O)c2ccc3c(c2)CCN3C(=O)CCC(=O)O)C1 (stereo not given),0%,u,x,28%,-6%[46.1 µM],x,-11%,0%
O=C(O)CCC(=O)N1CCc2c([nH]c3ccccc23)C1C(F)(F)F (stereo not given),2%,7%[46.1 µM],x,-4%,-5%[46.1 µM],x,4%,0%
O=C(COC(=O)COc1ccccc1)Nc1ccccc1OC(F)F,-12%,-3%,1.9%,-2%,-5%,11%,8%,-13%
O=C(Nc1cc(Cl)ccc1Cl)c1cc(S(=O)(=O)N2CCc3ccccc3C2)ccc1F,x,u,-0.4%,-28%,x,15%,x,x
N=c1sccn1CC(=O)Nc1cc(S(=O)(=O)N2CCCC2)ccc1Cl,x,7%,x,13%,-7%[46.1 µM],x,-10%,-3%
CCOC(=O)c1[nH]c2cc3c(cc2c1NC(=O)CN1CCC(C)CC1)OCO3,0%,-12%,-12%,-26%,-22%&-22%,-6%,5%,3%
Cc1cc(C)nc(SC2CCCCC2O)n1 (stereo not given),11%,-1%,5.7%,x,2%,-5%,-3%,0%
COc1ccc(C2C=C(c3ccccc3)Nc3nc(NC(=O)/C=C/c4ccccc4)nn32)cc1 (stereo not given),x,8%[46.1 µM],-7.8%,-4%,29%[46.1 µM],-3%,x,x
COc1cc(CNC2CCCCCC2)cc(OC)c1,-5%,-3%,2.7%,-20%,u,-7%,-7%,1%
O=C(COC(=O)c1cccc(N2C(=O)C3CC=CCC3C2=O)c1)c1ccccc1 (stereo not given),17%,-18%,x,8%,u,x,-14%,-4%
CC(Oc1ccc(F)cc1)C(=O)/C=C\N(C)C (stereo not given),-11%,21%,-1.5%,-7%,9%,-4%,0%,3%
Cc1cccc(NC(=O)c2cccc(OC(=S)N3CCOCC3)c2)c1C,5%,5%,x,7%,9%,x,5%,-3%
COc1ccc(N2CCN(CCNC(=O)Nc3ccc([N+](=O)[O-])cc3OC)CC2)cc1,1%,-2%[46.1 µM],x,-23%,u,x,-14%,-1%
COc1ccc(CNc2nnnn2C)cc1,-4%,12%[46.1 µM],x,-7%,-9%[46.1 µM],x,1%,2%
Cc1c(C#N)c(N)nc2c3c(sc12)NC(=O)CC3c1ccc(Cl)cc1 (stereo not given),5%,u,0.7%,22µM*,u,-30%,22%,-24%
O=C(Nc1ccc(Br)cc1)c1nn(C23CC4CC(CC(C4)C2)C3)cc1Br,20%,6%,0.5%,u,-16%,25µM*,0%,-4%
CS(=O)(=O)c1ccc(Cl)c(NC(=O)CN2CCN(C(=O)c3cccs3)CC2)c1,x,-6%[46.1 µM],x,-17%,-9%[46.1 µM],x,10%,1%
CCOC(=O)c1c(S(=O)(=O)N2CCC(C(=O)NCc3ccccc3Cl)CC2)c(C)n(C)c1C,x,-1%[46.1 µM],-2.8%,10%,x,u,x,x
CC(C)=CC(=O)NCc1c(Cl)cccc1-n1cccc1,1%,2%,4.5%,1%,20%,-26%,-4%,3%
COc1ccc2cc3c(N)nn(C(=O)C4CCC(C(C)(C)C)CC4)c3nc2c1 (stereo not given),21%,7%,-9.4%,-22%,10%,u,-6%,-8%
O=C(NCC1CCCO1)NC1CCCCC1 (stereo not given),-5%,6%,1.1%,18%,11%,-4%,2%,-10%
CC(=NNc1ccccc1)C(C)=NNc1ccccc1,x,-4%,x,-4%,2%,x,14%,x
CCOC(=O)c1cnc2ccc(C(=O)OC)cc2c1Nc1ccc2c(c1)OCCO2,0%,u,-0.3%,2%,u,2%,12%,1%
CCCSc1nnc2n(-c3cccc(C)c3)c(=O)c3c4c(sc3n12)CCCC4,x,-2%[46.1 µM],1.6%,-18%,25%[46.1 µM],0%,x,x
Cc1ccc(C(=O)NC(=S)Nc2ccc(-c3cc4ccccc4oc3=O)cc2)c(C)c1,16%,-18%,-1.4%,0%,4%,u,7%,-17%
COc1ccc(CCn2nnnc2C(c2ccc(C)cc2)N2CCN(C)CC2)cc1OC (stereo not given),-4%,u,8.9%,-8%,-7%[46.1 µM],1%,12%,2%
CCOC(=O)c1cc(-c2ccccc2)n(CC(=O)N(C)c2ccc(OC)cc2)c1C,x,u,-8.1%,-17%,x,u,x,x
CC(C)n1nnnc1SCC(=O)NNC(=O)C1CCCCC1,1%,2%,11%,x,-14%,-3%,1%,10%
COc1ccc(-n2c(Cn3c(=O)sc4ccccc43)nnc2SCC(N)=O)cc1,u,x,0.1%,2%,x,9%,7%,0%
CCCCCCNC(=O)c1cccc(-c2ccc(C)c3ccccc23)n1,-14%,11%,-5.6%,-12%,14%,-12%,-13%,-14%
CCCCNC(=O)C1CC(=O)N(CCc2ccc(C)cc2)C1 (stereo not given),-7%,7%[46.1 µM],x,-4%,16%[46.1 µM],x,16%,1%
CCN1CCN(c2c(C(=O)c3ccc(OC)cc3)cnc3ccccc23)CC1,7%,x,x,-9%,x,x,7%,3%
OC(c1ccccc1)c1cccnc1 (stereo not given),8%,5%,0.1%,-11%,1%,-12%,-12%,u
O=C(CN(C(=O)CNC(=O)c1cccs1)c1ccc2c(c1)OCCO2)NC1CCCC1,-5%,1%,-3.7%,x,-18%,1%,4%,0%
Cc1ccc(Nc2c([N+](=O)[O-])c(=O)oc3ccccc23)cc1,0%,u,x,u,u,x,-14%,0%
Cc1ccc(C(=O)CCC(=O)CCC(=O)O)cc1,x,-6%,x,0%,0%,x,7%,x
Cc1cc(C)cc(-n2ccn(CC(=O)Nc3cc(C)ccc3C)c(=O)c2=O)c1,x,-18%[46.1 µM],-8.3%,-5%,x,3%,x,x
CC1Cc2cc(/C(O)=C3/C(=O)C(=O)N(Cc4cccnc4)C3c3cccc(O)c3)ccc2O1 (stereo not given),-19%,x,x,-17%,x,x,15%,-1%
